# NPYLR7 ag: agonists of mosquito NPYLR7 receptor, primary screen, cell-based, Aedes aegypti, calcium fluorescence, mosquito biting behavior. HEK293T NPYLR7/Galpha15, GCaMP6s calcium fluorescence. Aedes aegypti neuropeptide Y-like receptor 7 (NPYLR7). AID 1259423, 2018. actives 0.15% (n = 270,000). activation, % at 10 µM; in the data active = activation above about 40%;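 also: 0% = vehicle and 100% = reference agonist at the receptor; some compounds past the cut are filed as inactive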
# NPYLR7 ag max-min: also measured in NPYLR7 ag; calls as there; activation, %; measured here: Max-Min RFU normalised activation; some inactives read as strong as hits;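 span of the calcium signal over five minutes; 0% = vehicle and 100% = native peptide agonist; compound fluorescence can raise it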
# An asterisk follows results filed as active; & = joins results of further samples.
# The opening 26 entries as a preview:
SMILES,NPYLR7 ag,NPYLR7 ag max-min
N#CC(c1nc2ccccc2nc1NC1CCCCCCC1)S(=O)(=O)c1ccc(F)cc1 (stereo not drawn),3,10
CCOC(=O)CN(CC1CC1)[C@@H]1C[C@@H]2CO[C@H](C(C)C)C[C@@H]2C1,1,14
CCOc1ccccc1CN1CCN(Cc2ccc(CC)o2)CC1CCO (stereo not drawn),-1,-4
CNc1nc(C)cc(-c2cccc(C(C)OC)c2)n1 (stereo not drawn),2,1
N#CCS(=O)(=O)c1ccc(F)cc1,2,0
O=C(c1ccc(S(=O)(=O)N2CCOCC2)cc1)n1nnc2ccccc21,-1,-6
Cc1ncsc1CCn1ccnc1-c1nc[nH]c1C,14,8
CCOCCCNC(=O)c1cc(NC(=O)COCc2ccccc2)ccc1N1CCCCC1,36,33
COc1ccc(-c2cnnc(NCc3cc(C)n(C)n3)n2)c(OC)c1,1&1,-7&-1
N#Cc1cccnc1NCCN1CCCc2ccccc21,1,-2
CCC(CC)NC(=O)CNC(=O)c1ccc(S(=O)(=O)N(CC)CC)cc1,18,9
CCOC(=O)CCNc1cc(N2CCc3ccccc3CC2)nc(-c2ccccn2)n1,25,4
O=C(CSc1nnc(-c2cccs2)o1)NC(=O)NC1CCS(=O)(=O)C1 (stereo not drawn),0,-1
O=C(COC(=O)c1ccccc1F)Nc1ccc(Br)cc1Br,0,-1
CC(=O)c1ccc(NC(=O)N2CCCC(C(=O)c3cccc(OC(C)C)c3)C2)cc1 (stereo not drawn),7,-9
Cc1c(C)c(C)c(S(=O)(=O)N2CCN(C(=O)C(C)NC(=O)C(C)C)CC2)c(C)c1C (stereo not drawn),-3,-3
CN(CCCNC(=O)CCC(=O)c1ccc(CCCC2CC2)cc1)c1ccccc1,-4,-8
Cc1ccccc1Cc1nnc(NC(=O)C(=O)N2CCOCC2)s1,1,0
CC(C)C(NS(=O)(=O)c1ccc(Cl)nc1)C(=O)N(C)C (stereo not drawn),18,10
Cc1nn(-c2cccc(F)c2)c(N2CCN(C)CC2)c1CN(CCC(C)C)C(=O)CSc1ccccc1,0,9
CCOC(=O)C1=C(C)N=c2s/c(=C\c3ccc(OC)cc3OC)c(=O)n2C1c1ccc(Cl)cc1 (stereo not drawn),9,13
Cc1ccc2nc(COCC(=O)N3CC[C@H](O)[C@@H](O)C3)[nH]c2c1,27,19
Cc1ccccc1-n1cc(CN(C)C(=O)c2ccc(=O)[nH]n2)cn1,-2,1
Clc1ccc2nnn(OCc3cn4cc(Cl)ccc4n3)c2c1,-2,-1
CCOC(=O)c1csc(CSc2nnc(-c3ccco3)n2-c2cc(Cl)ccc2C)n1,2,8
COC(=O)c1cccc(C(=O)Nc2cc(C3CC4CCC3C4)[nH]n2)n1 (stereo not drawn),1,-4

# Main list, from the start:
SMILES,NPYLR7 ag,NPYLR7 ag max-min
N#CC(c1nc2ccccc2nc1NC1CCCCCCC1)S(=O)(=O)c1ccc(F)cc1 (stereo not drawn),3,10
CCOC(=O)CN(CC1CC1)[C@@H]1C[C@@H]2CO[C@H](C(C)C)C[C@@H]2C1,1,14
CCOc1ccccc1CN1CCN(Cc2ccc(CC)o2)CC1CCO (stereo not drawn),-1,-4
CNc1nc(C)cc(-c2cccc(C(C)OC)c2)n1 (stereo not drawn),2,1
N#CCS(=O)(=O)c1ccc(F)cc1,2,0
O=C(c1ccc(S(=O)(=O)N2CCOCC2)cc1)n1nnc2ccccc21,-1,-6
Cc1ncsc1CCn1ccnc1-c1nc[nH]c1C,14,8
CCOCCCNC(=O)c1cc(NC(=O)COCc2ccccc2)ccc1N1CCCCC1,36,33
COc1ccc(-c2cnnc(NCc3cc(C)n(C)n3)n2)c(OC)c1,1&1,-7&-1
N#Cc1cccnc1NCCN1CCCc2ccccc21,1,-2
CCC(CC)NC(=O)CNC(=O)c1ccc(S(=O)(=O)N(CC)CC)cc1,18,9
CCOC(=O)CCNc1cc(N2CCc3ccccc3CC2)nc(-c2ccccn2)n1,25,4
O=C(CSc1nnc(-c2cccs2)o1)NC(=O)NC1CCS(=O)(=O)C1 (stereo not drawn),0,-1
O=C(COC(=O)c1ccccc1F)Nc1ccc(Br)cc1Br,0,-1
CC(=O)c1ccc(NC(=O)N2CCCC(C(=O)c3cccc(OC(C)C)c3)C2)cc1 (stereo not drawn),7,-9
Cc1c(C)c(C)c(S(=O)(=O)N2CCN(C(=O)C(C)NC(=O)C(C)C)CC2)c(C)c1C (stereo not drawn),-3,-3
CN(CCCNC(=O)CCC(=O)c1ccc(CCCC2CC2)cc1)c1ccccc1,-4,-8
Cc1ccccc1Cc1nnc(NC(=O)C(=O)N2CCOCC2)s1,1,0
CC(C)C(NS(=O)(=O)c1ccc(Cl)nc1)C(=O)N(C)C (stereo not drawn),18,10
Cc1nn(-c2cccc(F)c2)c(N2CCN(C)CC2)c1CN(CCC(C)C)C(=O)CSc1ccccc1,0,9
CCOC(=O)C1=C(C)N=c2s/c(=C\c3ccc(OC)cc3OC)c(=O)n2C1c1ccc(Cl)cc1 (stereo not drawn),9,13
Cc1ccc2nc(COCC(=O)N3CC[C@H](O)[C@@H](O)C3)[nH]c2c1,27,19
Cc1ccccc1-n1cc(CN(C)C(=O)c2ccc(=O)[nH]n2)cn1,-2,1
Clc1ccc2nnn(OCc3cn4cc(Cl)ccc4n3)c2c1,-2,-1

# A second format for part of the listing above.
SMILES | NPYLR7 ag | NPYLR7 ag max-min
CCOC(=O)C1=C(C)N=c2s/c(=C\c3ccc(OC)cc3OC)c(=O)n2C1c1ccc(Cl)cc1 (stereo not drawn) | 9 | 13
Cc1ccccc1Cc1nnc(NC(=O)C(=O)N2CCOCC2)s1 | 1 | 0

# The listing continues.
SMILES,NPYLR7 ag,NPYLR7 ag max-min
CCOC(=O)c1csc(CSc2nnc(-c3ccco3)n2-c2cc(Cl)ccc2C)n1,2,8
COC(=O)c1cccc(C(=O)Nc2cc(C3CC4CCC3C4)[nH]n2)n1 (stereo not drawn),1,-4
CCCn1nc(C(=O)N2CCCC2)c2c1CCC(N1CCN(c3ccccc3OCC)CC1)C2 (stereo not drawn),20,7
COc1ccc(-c2nccn2CCc2cnc[nH]2)c(C)c1C,-8,-9
COc1ccccc1OCC1c2ccsc2CCN1C(=O)CN(CC1CCCO1)C(=O)Cc1ccccc1 (stereo not drawn),-2,1
O=C(NCCn1ncc2c(=O)n(Cc3ccccc3F)cnc21)c1ccc2c(c1)OCO2,-4,-9
COc1cccc(NC(=O)CCC2CCN(C(=O)NCCc3ccccc3)CC2)c1,-2,-9
CCOC(=O)c1c(NC(=O)CSc2nnc3ccccn23)sc(C(=O)OC)c1C,-3,-6
CC(C)N(CCNCc1cccc(O)c1)C1CC1,-1,-3
Cc1nn(C(=O)c2ccc(F)cc2)c(C)c1Sc1ccccc1,-3,-1
COc1ccc2[nH]c3c(c2c1)CCN(C(=O)c1cc(Cl)sc1Cl)C3c1ccc(C(F)(F)F)cc1 (stereo not drawn),6,-3
Cc1sc(C)c(C2=CCCCC2)c1Br,-4,4
Cn1nnnc1SCC(=O)Nc1sc2c(c1C(N)=O)CCC2,5,3
Cc1nc2n(c1C)CCN(CC(=O)NNC(=O)c1ccc(F)cc1)C2,8,4
O=C(N[C@@H]1CCCC[C@H]1OCc1ccccc1)c1cccnc1Oc1ccc(Cl)cc1,2,0
Cc1ccccc1Cn1nc(-c2ccco2)c2sc(N3CCCCC3)nc2c1=O,-3,-7
COC(=O)Oc1cc2oc(=O)sc2cc1Cl,-2,-3
CN1CCN(Cc2c(O)ccc3cc(-c4ccccn4)c(=O)oc23)CC1,8,1
Cn1c(SCC(N)=O)nnc1-c1ccc(Cl)cc1,11,11
CC(=O)NCC1CCC2(CCN(c3nccc(-c4ccc(C)nc4C)n3)CC2)O1 (stereo not drawn),11,5
Cc1ccc(CN2CCN(CC3=Cc4cc(Cl)ccc4OC3)CC2CCO)o1 (stereo not drawn),-1,-3
C=c1c(C#N)c2[nH]c(N)c(C#N)c(C)c-2/c1=C\c1ccc2c(c1)OCO2,11,8
CCOC(=O)[C@@H]1CN(S(=O)(=O)c2ccc(C(C)=O)cc2)[C@H]2c3cccc(F)c3O[C@@H]12,2,15
CN(C)CCCN1C(=O)C2C3C=CC(C3)C2C1=O (stereo not drawn),9,0
COc1cc(OC)cc(C(=O)N(CC(=O)Nc2cc(C(C)(C)C)nn2-c2cccc(C)c2C)C(C)C)c1,-9,-3
Clc1cc2c(cc1CN1CCC3(CC1)OCCCO3)OCO2,-9,-13
O=C1NC(=Nc2ccccc2)S/C1=C/c1ccc(Oc2ccc([N+](=O)[O-])cc2[N+](=O)[O-])cc1,-9,-13
O=C(c1cc(F)ccc1Br)N1CCN(S(=O)(=O)c2ccccc2)CC1,12,1
CCn1ccnc1CN(C)C(=O)CCc1nnc(CCCc2ccccc2)o1,2,1
NCc1ccccc1CN1CCN(c2ccccc2)CC1,2,1
COc1ccc(C)cc1N1C(=O)C(c2c(C)[nH]n(C(C)(C)C)c2=O)=C(N2CCC(C)CC2)C1=O,12,14
COc1ccc(-c2c(C)nn3c(-n4cnc5ccccc54)cc(C)nc23)cc1OC,6,7
Cc1nn(-c2ccccc2)c(C)c1SCC(=O)NCC(=O)NC(C)(C)C,-4,-1
CS(=O)(=O)C1CCCC(NC(=O)c2ccc(C(F)(F)F)cc2)C1 (stereo not drawn),0,-4
CC1(C)CN(C(=O)C(=O)Nc2ccn(-c3ccccc3)n2)CCO1,4,3
Cc1ccn2c(NC(=O)C3CCCC3)c(-c3cccc(Cl)c3)nc2c1,-13,-13
Cn1ccnc1SCCNC(=O)C1CC(=O)N(C2CC2)C1 (stereo not drawn),7,5
CCCNC(=O)C1CCN(CC(O)c2ccc(C(F)(F)F)cc2)CC1 (stereo not drawn),-3,-4
CN1CCN(C(c2ccc(C(F)(F)F)cc2)c2cc(Cl)c3cccnc3c2O)CC1 (stereo not drawn),2,1
Cc1c(C)c2ccc(OCc3nn[nH]n3)cc2oc1=O,-8,-7
Cc1ccc(C2C3=C(CCCC3=O)SC(=N)C2C#N)o1 (stereo not drawn),10,4
CCOc1ccc(-n2nnnc2CNS(=O)(=O)N(C)C)cc1,-2,-4
Cc1c(C=C2C(=O)NC(=S)NC2=O)c(=O)n(-c2ccccc2)n1C,-1,-8
NC1=NC2(CCCCC2)n2c(nc3ccccc32)N1,18,9
Cc1csc(C2C(=O)NC(=S)C(C#N)C23CCCCC3)n1 (stereo not drawn),2&11,0&7
CC(C)(C)c1ccc(-c2ccnc(N3CCN(S(=O)(=O)c4ccc(F)cc4)CC3)n2)cc1,6,1
CCn1nnc2c(Nc3ccc4c(c3)OCCO4)ncnc21,10,17
Cc1ccc(-n2nnc3c(=O)n(Cc4ccccc4F)cnc32)cc1C,-4,-5
O=C1CCC(C(=O)N2CCN(Cc3cccnc3)CC2)CN1CC1CCCCC1 (stereo not drawn),-4,-7
COc1ccccc1C1CNC(=O)c2nc(-c3cn(C)nc3C)[nH]c2C1 (stereo not drawn),3,4
COC(=O)C(C)NC(=O)C1CCN(S(=O)(=O)c2ccc(Cl)cc2)CC1 (stereo not drawn),2,5
CC1(c2ccco2)NC(=S)N(c2ccccc2)N1 (stereo not drawn),3,2
C=CCN=c1scc(-c2ccc(Br)cc2)n1N=Cc1cccnc1,0,-12
COc1cc(-c2cnn3c(C)c(C(=O)NCCCCc4ccccc4)cnc23)cc(OC)c1OC,8,-1
O=S(=O)(Cc1ccccc1)N1CCN(Cc2nc(-c3cccs3)cs2)CC1,-18,-22
COc1ccc2c(c1)c(=O)oc1cc(O)ccc12,0,9
COc1ccc(-c2nc(NC(=O)c3ccc(C)c(F)c3)n[nH]2)cc1OC,0,0
COc1cccc(NC(=O)CCC2CCN(C(=O)CCN3CCCCO3)CC2)c1,11,7
O=C(CCc1ccccc1)NC1CCN(c2ccccc2C(=O)NCc2cccnc2)CC1,16,18
Cc1ccc2nc(CN(C)c3ncnc4c3CCN(C(=O)C3CC3)C4)[nH]c2c1,-1,-7

# (list continues)
SMILES,NPYLR7 ag,NPYLR7 ag max-min
C=CCN(C(=O)Nc1ccc(OC)cc1)c1nnc(-c2ccncc2)s1,7,1
O=C1/C(=C/c2ccc3ccccc3n2)Oc2cc(O)ccc21,8,7
CC(C(=O)O)n1c(Cc2ccccc2)n[nH]c1=O (stereo not drawn),10,6
Cc1[nH]nc(CCC(=O)N2CC[C@@H](c3ccc4c(c3)OCO4)[C@H](O)C2)c1C,0,-2
CCc1ccc(CN2CCCC(CNC(=O)c3ccncn3)C2)nc1 (stereo not drawn),35,26
O=C(NCCOc1ccc(-c2ccccc2)nn1)c1ccco1,1,0
Fc1cccc(NC2CCCN(Cc3cccn3-c3ncccn3)C2)c1 (stereo not drawn),4,0
CCCn1ncc2[nH]c(-c3c(OC)ccc4ccccc34)nc21,-2,16
CC(C)(NC(=O)c1cccs1)C(=O)N1CCCC1c1ccccn1 (stereo not drawn),25,18
O=C(NCC1Cc2cc(F)ccc2O1)c1ccc2c(c1)OCO2 (stereo not drawn),30,26
COc1cccc(CC(=O)Nc2c(C(=O)N3CCOCC3)oc3ccccc23)c1,-14,-14

# Screens from PubChem.

# Some of the compounds tested; count on the stated rates, not on these rows.
